# From PubChem
# NPYLR7 agonist – agonists of mosquito NPYLR7 receptor, primary screen, cell-based, Aedes aegypti, calcium fluorescence, mosquito biting behavior | actives 0.15% (n = 270,000) | Aedes aegypti neuropeptide Y-like receptor 7 (NPYLR7) | activation, % at 10 µM | AID 1259423, 2018 | HEK293T NPYLR7/Galpha15, GCaMP6s calcium fluorescence; in the data active = activation above about 40%;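 note: 0% = vehicle and 100% = reference agonist at the receptor; some compounds past the cut are filed as inactive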
# NPYLR7 agonist max-min – also measured in NPYLR7 agonist; calls as there; activation, %; measured here: Max-Min RFU normalised activation; some inactives read as strong as hits;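 span of the calcium signal over five minutes; 0% = vehicle and 100% = native peptide agonist; compound fluorescence can raise it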
# Numbers without * were called inactive. Not all compounds are listed. The share of hits here may be higher or lower than overall.
1	COc1cccc(C(CN2CCN(C(=O)Cc3cccs3)CC2)OCc2ccc(C#N)cc2)c1 (stereo unspecified)
2	Cc1cc(C)n(C)c(=O)c1C(=O)N1C[C@@H]2CN(C)C[C@]2(C(=O)O)C1
3	CCN(C)CCc1c[nH]c2ccc(NC(=O)Cc3cc(OC)ccc3OC)cc12
4	COc1ccc(CC(C)N)c(OC)c1OC (stereo unspecified)
5	COC(=O)CC1(CC(=O)OC)C(=O)NC(=O)NC1=O
6	O=C(Nc1ccc(Cl)cc1)N1CCN(CCOC(c2ccccc2)c2ccccc2)CC1
7	S=P(NN=C1CCSC1)(c1ccccc1)c1ccccc1
8	CCCN(CCc1c[nH]c2ccc(NC(=O)C(Cl)(Cl)Cl)cc12)CC1CC1
assay / entry	1	2	3	4	5	6	7	8
NPYLR7 agonist	1	2	0	0	-1	-1	0	7
NPYLR7 agonist max-min	1	2	-3	-5	-2	3	-2	11

9	CN1C(=O)COc2c(C(=O)NC3CN4CCC3CC4)cc(Cl)cc21 (stereo unspecified)
10	CCCn1nc2ccccc2c1P(=S)(N(C)C)N(C)C
11	CN(C)C(=O)Oc1ccc(-c2ccccc2)cc1
12	O=c1ccc(-c2ccc(Cl)cc2)c2n1C[C@H]1C[C@@H]2CN(Cc2cnc3ccccc3c2)C1
13	CC(C)(C)c1nn(-c2cccc(Cl)c2)c2c1C(c1ccsc1)SCC(=O)N2CC(=O)NCc1ccncc1 (stereo unspecified)
14	COc1ccc2[nH]c(C)c(CC(=O)N3CCN(CC(=O)NC(C)C)CC3)c2c1
15	CN1CCC(C(=O)N2CCCC(O)(CO)CC2)(c2ccccc2)CC1 (stereo unspecified)
16	CCOC(=O)C1=C(C)OC(=N)C(C#N)C12C(=O)Nc1ccc(Cl)cc12 (stereo unspecified)
assay / entry	9	10	11	12	13	14	15	16
NPYLR7 agonist	12	-1	0	-10	15	-1	7	-3
NPYLR7 agonist max-min	10	-1	14	-15	21	-5	5	-3

# 4 entries from above, reformatted.
2: Cc1cc(C)n(C)c(=O)c1C(=O)N1C[C@@H]2CN(C)C[C@]2(C(=O)O)C1
- NPYLR7 agonist = 2
- NPYLR7 agonist max-min = 2
11: CN(C)C(=O)Oc1ccc(-c2ccccc2)cc1
- NPYLR7 agonist = 0
- NPYLR7 agonist max-min = 14
4: COc1ccc(CC(C)N)c(OC)c1OC (stereo unspecified)
- NPYLR7 agonist = 0
- NPYLR7 agonist max-min = -5
3: CCN(C)CCc1c[nH]c2ccc(NC(=O)Cc3cc(OC)ccc3OC)cc12
- NPYLR7 agonist = 0
- NPYLR7 agonist max-min = -3

# Next part
17	CCCn1ncc(C(=O)N(Cc2ccc3c(c2)OCO3)C2CC2)c1C
18	CCNC(=O)C1(C)CCN1Cc1ccc(Cl)nc1 (stereo unspecified)
19	CC(=O)c1ccc(NC(=O)NC[C@H]2C[C@@H]3CCN2C[C@@H]3CN2CCCCC2)cc1
20	COc1ccc(C(C)=O)cc1Cc1c(O)[nH]c(=S)[nH]c1=O
21	O=C(c1cccc2ccnn12)N1C[C@H]2C[C@@H](C1)c1cccc(=O)n1C2
22	Cc1cc(C(=O)NC2CCCC2)c(C)n1C1CC1
23	CCNC(=O)N(CCOC)Cc1cc(NC(=O)CC(C)(C)C)ccc1N(C)C1CCN(C)CC1
24	O=S(=O)(c1cc(Br)c(Br)s1)N1CCN(CCOC(c2ccccc2)c2ccccc2)CC1
assay / entry	17	18	19	20	21	22	23	24
NPYLR7 agonist	-6	4	-6	-14	-3	3	-2	4
NPYLR7 agonist max-min	-9	3	-14	-16	-6	7	9	0

25	COCCNC(=O)NC(=O)CCl
26	CCN1C(=O)C2(c3ccccc31)c1c(cc(C)n(Cc3ccco3)c1=O)OC(=N)C2C(=O)OC (stereo unspecified)
27	COc1ccc(CCN(C)C2CCCN(C(=O)Cc3c(C)noc3C)C2)cc1OC (stereo unspecified)
28	COc1ccccc1[C@@H]1CN(Cc2nc[nH]c2C)[C@@H]2C3CCN(CC3)[C@@H]21
29	N=C1c2ccccc2CN1c1ccc(F)c(F)c1
30	CC(C)(C)c1nn(-c2cccc(Cl)c2)c2c1C(c1ccsc1)SCC(=O)N2CC(=O)NCC1CCCO1 (stereo unspecified)
31	Brc1ccc2n1CCN=C2c1cccnc1
32	CCCC1=C(C(=O)OCC)C2(C(=O)Nc3ccccc32)C(C(=O)OCC)C(=N)O1 (stereo unspecified)
33	CCNC(=O)N(CCOC)Cc1cc(NC(=O)c2cccc(F)c2)ccc1N(C)C1CCN(C)CC1
34	CN1CC2(CCCN(CCc3ccccn3)C2)OC1=O (stereo unspecified)
35	CCC1CN(C(=O)Cc2c(C)noc2Cl)CC1N1CCOCC1 (stereo unspecified)
assay / entry	25	26	27	28	29	30	31	32	33	34	35
NPYLR7 agonist	-4	1	5	3	6	15	-9	8	1	-4	8
NPYLR7 agonist max-min	-11	-1	2	2	4	6	-9	9	12	-4	5

# Screen by screen, quoted from above:
# Compounds 30–34 in NPYLR7 agonist, in turn: 15, -9, 8, 1, -4
# Compounds 30–34 in NPYLR7 agonist max-min, in turn: 6, -9, 9, 12, -4

# Arranged by count of non-hydrogen atoms (rising): some entries from above
29	N=C1c2ccccc2CN1c1ccc(F)c(F)c1
27	COc1ccc(CCN(C)C2CCCN(C(=O)Cc3c(C)noc3C)C2)cc1OC (stereo unspecified)
26	CCN1C(=O)C2(c3ccccc31)c1c(cc(C)n(Cc3ccco3)c1=O)OC(=N)C2C(=O)OC (stereo unspecified)
assay / entry	29	27	26
NPYLR7 agonist	6	5	1
NPYLR7 agonist max-min	4	2	-1
